Screening data (PubChem)
ALR H2O2 inh – inhibitors of human ALR sulfhydryl oxidase, primary screen, biochemical, H2O2 detection, HRP-luminol luminescence, single point; FAD-linked sulfhydryl oxidase ALR (Homo sapiens), P55789; purified ALR, DTT oxidation; inhibition, % (test concentration not listed); actives 3.8% (n = 290,000);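 active = mean and each replicate at 75% or more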;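 note: stock transfer was 7.5 nL into about 7.5 µL; 0% = neutral wells and 100% = wells with inactivated enzyme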
Target sequence (P55789 whole entry, looked up): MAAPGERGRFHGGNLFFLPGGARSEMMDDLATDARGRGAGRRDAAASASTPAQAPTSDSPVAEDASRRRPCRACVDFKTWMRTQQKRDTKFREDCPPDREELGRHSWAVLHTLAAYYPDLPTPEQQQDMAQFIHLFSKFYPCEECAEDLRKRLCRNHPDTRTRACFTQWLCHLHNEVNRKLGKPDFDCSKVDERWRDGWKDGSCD
T cruzi inh – inhibitors of intracellular T. cruzi growth, primary screen, luminescence, NIH3T3 host cells. T. cruzi beta-gal in NIH3T3, 90 h. inhibition, % (test concentration not listed). actives 1.4% (n = 300,000);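 active = mean inhibition across valid replicates above about 55%, limit read from the data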;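 note: signal also drops with host cell toxicity which is not excluded here; 0% = plate median of DMSO wells and 100% = zero luminescence signal; higher percent means less beta-gal luminescence so fewer parasites; stock transfer was 50 nL into about 50 µL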
MLL AF4-AF9 inh – inhibitors of AF4 peptide binding to AF9, primary screen, biochemical, AlphaScreen, biotin-AF4 peptide, FLAG-AF9, single point; Protein AF-9 (Homo sapiens), P42568; inhibition, % at 10 µM; actives 0.47% (n = 350,000); AID 651704, 2012;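 active = every replicate reaching a set inhibition limit, whatever the replicate mean, cut at about 25% in these data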;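 note: 0% = plate neutral control median and 100% = total signal loss; the record names both 10 and 1 µM as test concentration; the first replicate is given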
Target sequence (P42568 whole entry, looked up): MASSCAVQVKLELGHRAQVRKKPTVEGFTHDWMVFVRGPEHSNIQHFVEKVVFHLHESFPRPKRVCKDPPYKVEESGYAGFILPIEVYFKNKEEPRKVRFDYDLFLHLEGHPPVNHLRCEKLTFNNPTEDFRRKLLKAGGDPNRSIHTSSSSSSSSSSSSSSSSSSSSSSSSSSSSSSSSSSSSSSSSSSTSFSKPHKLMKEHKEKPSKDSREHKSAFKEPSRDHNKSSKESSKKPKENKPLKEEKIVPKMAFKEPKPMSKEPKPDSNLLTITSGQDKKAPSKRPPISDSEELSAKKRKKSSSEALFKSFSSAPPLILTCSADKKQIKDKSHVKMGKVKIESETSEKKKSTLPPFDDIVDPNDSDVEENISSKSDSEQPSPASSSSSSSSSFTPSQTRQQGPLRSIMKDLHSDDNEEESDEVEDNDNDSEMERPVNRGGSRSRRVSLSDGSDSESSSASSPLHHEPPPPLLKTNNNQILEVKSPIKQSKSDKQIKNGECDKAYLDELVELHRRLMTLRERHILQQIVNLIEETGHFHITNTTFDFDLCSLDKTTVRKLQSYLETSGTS
Calb FLC – C. albicans growth inhibition with fluconazole, primary screen, CaCi-2 strain, Alamar Blue fluorescence. growth inhibition, % (test concentration not listed). C. albicans CaCi-2 (fluconazole-resistant clinical isolate) + fluconazole, 48 h. actives 0.57% (n = 300,000). AID 1979, 2009;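 active = most replicates above 75%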;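 note: all wells also contain fluconazole at 8 µg/ml as a sub-toxic cotreatment; 0% = median of DMSO wells and 100% = median of geldanamycin control wells; wells of about 8 µL received 7.5 nL stock; the first replicate is given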
FGF22 binding – binders of human FGF22 protein, primary screen, FGF22 synaptogenesis inhibitor project, biophysical, thermal shift, single point; Fibroblast growth factor 22 (Homo sapiens), Q9HCT0; recombinant FGF22 thermal shift, SYPRO orange fluorescence; percent of sucrose octasulfate shift, DMSO zero; calls only at 9.99 µM; actives 1.5% (n = 340,000); AID 651658, 2012;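 active = melting point raised past a set limit in the mean and every replicate; three in four hits are not shown here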
Target sequence (Q9HCT0 whole entry, looked up): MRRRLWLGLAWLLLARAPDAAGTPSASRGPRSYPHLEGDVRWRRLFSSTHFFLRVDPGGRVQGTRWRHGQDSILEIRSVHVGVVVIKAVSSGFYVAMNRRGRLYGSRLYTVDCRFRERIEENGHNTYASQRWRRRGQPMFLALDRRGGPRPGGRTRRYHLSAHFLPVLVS
RanGTP-Impb inh – inhibitors of RanGTP-importin-beta interaction, primary screen, biochemical, FRET, CFP-Ran, YFP-importin-beta, homogeneous; Ran GTPase (GTP-bound) - importin-beta complex; cell-free CFP-Ran/YFP-importin-beta FRET ratio; inhibition, % (no concentration beside the values); actives 1.1% (n = 300,000); AID 2216, 2009;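 active = most replicates above 15%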;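 note: 0% = DMSO wells and 100% = Ran loaded with GDP instead of GTP; wells of about 40 µL received 100 nL stock; the first replicate is given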
Active calls of the source: *.

How did N#CCSc1nnc(COc2cccc3ccccc23)n1-c1ccccc1 do in these assays?
ALR H2O2 inh: -8; T cruzi inh: 38; Calb FLC: 53

Results for NC(Cc1ccc(Oc2ccc(O)cc2)cc1)C(=O)O (configuration not stated) ?
ALR H2O2 inh: 5; T cruzi inh: 11; RanGTP-Impb inh: 9.8

What do the screens show for `C=CCOc1ccc(/C(O)=C2/C(=O)C(=O)N(CCCN3CCOCC3)C2c2ccc(OC)cc2)cc1` (configuration not stated)?
ALR H2O2 inh: 29; T cruzi inh: 2; RanGTP-Impb inh: 6.1

How did Cc1ccc(S(=O)(=O)NCCC(=O)Nc2ccc3c(c2)OCO3)cc1 do in these assays?
ALR H2O2 inh: -5; Calb FLC: -4; RanGTP-Impb inh: 0.6

Results for CCOC(=O)[C@]12CCCC=C1N(Cc1ccccc1)C(=O)[C@H](CC(=O)N1CCOCC1)C2 ?
FGF22 binding: inactive

How did Nc1[nH]c(C(=O)c2ccccc2)c(-c2ccc(Br)cc2)c1C(=O)c1ccccc1 do in these assays?
FGF22 binding: inactive

Results for C=CCOC(=O)Nc1nc(CCNC(=O)OC(C)(C)C)c(C(=O)OC)s1 ?
FGF22 binding: inactive

What do the screens show for `CC(C)(C)NC(=O)C(c1ccc(C(F)(F)F)cc1)n1c(=O)c(-c2cc3ccccc3[nH]2)nc2ccccc21` (configuration not stated)?
FGF22 binding: inactive

What do the screens show for `Nc1[nH]c(C(=O)c2ccccc2)c(-c2ccc(Cl)cc2)c1C(=O)c1c[nH]c2ccccc12`?
FGF22 binding: inactive

Results for CC(C)(C)NC(=O)C(C1CC1)n1c(-c2ccccc2)nc2ccccc21 (configuration not stated) ?
FGF22 binding: inactive

How did Nc1[nH]c(C(=O)c2ccccc2)c(-c2ccccc2)c1C(=O)NCCc1c[nH]c2ccccc12 do in these assays?
FGF22 binding: inactive

How did CCc1ccc(N2C=C(C(=O)OC)C(c3cccc4ccccc34)C(C#N)=C2N)cc1 (configuration not stated) do in these assays?
FGF22 binding: inactive

What do the screens show for `CC(C)CN1C(=O)CN(S(C)(=O)=O)CC1(C)C(=O)NC(C)C` (configuration not stated)?
FGF22 binding: inactive

Results for CSCCC(C(=O)Nc1c(C)cccc1C)n1c(-c2ccc(C(F)(F)F)cc2)nc2ccccc21 (configuration not stated) ?
FGF22 binding: inactive

What do the screens show for `CC(C)(C)OC(=O)N1CCc2onc(-c3ccc(-n4cc(C5=CCCCC5)nn4)cc3)c2C1=O`?
FGF22 binding: inactive

How did Nc1[nH]c(C(=O)c2ccccc2)c(-c2ccc(Cl)c(Cl)c2)c1C(=O)NCCc1c[nH]c2ccccc12 do in these assays?
FGF22 binding: inactive

How did CC1(C(=O)NCc2ccccc2)CN(S(C)(=O)=O)CC(=O)N1C1CC1 (configuration not stated) do in these assays?
FGF22 binding: inactive

How did O=C(NCc1ccccc1)C1C(c2ccccc2)=Nc2ccccc2N1C(=O)c1cnccn1 (configuration not stated) do in these assays?
FGF22 binding: inactive

How did COC(=O)[C@@]12C[C@@H](CC(=O)NCc3ccccc3)C(=O)N(Cc3ccccc3)C1=CCC(C)(C)C2 do in these assays?
FGF22 binding: inactive

What do the screens show for `Cc1cccc(N2CCN(C3C(=O)Nc4ccccc4-n4nnnc43)CC2)c1C` (configuration not stated)?
FGF22 binding: inactive

Results for COC(=O)[C@@]12C[C@@H](CC(=O)NCc3ccc(OC)c(OC)c3)C(=O)N(Cc3cccc4ccccc34)C1=CCC(C)(C)C2 ?
FGF22 binding: inactive

How did CCCCCNC(=O)C(c1cc2ccccc2o1)n1c(=O)c(-c2ccccc2)nc2ccccc21 (configuration not stated) do in these assays?
FGF22 binding: inactive

Results for COC(=O)C[C@@H]1C=C[C@H](NC(=O)Nc2ccc(OC)cc2)[C@@H](CO)O1 ?
FGF22 binding: inactive

How did Cc1cc(C)c2cc(C#N)c(NCCNC(=O)c3ccncc3)nc2c1 do in these assays?
FGF22 binding: inactive

What do the screens show for `COC(=O)[C@]12CCCCC=C1N(CCc1ccc(OC)c(OC)c1)C(=O)[C@H](CC(=O)NCc1cccs1)C2`?
FGF22 binding: inactive

How did COc1ccc(-n2nnnc2C2(C)CCC(=O)N2Cc2ccccc2)cc1 (configuration not stated) do in these assays?
FGF22 binding: inactive

How did CC1(c2nnnn2C2CCCCC2)CCC(=O)N1Cc1ccc2c(c1)OCO2 (configuration not stated) do in these assays?
FGF22 binding: inactive

Results for Nc1[nH]c(C(=O)c2ccccc2)c(-c2cccc3ccccc23)c1C(=O)NCc1ccc(Cl)cc1Cl ?
FGF22 binding: inactive

What do the screens show for `O=C(C1CCC1)N1CCCCN2[C@H](C1)[C@@H](c1ccc(-c3cccc(F)c3)cc1)[C@@H]2CO`?
FGF22 binding: inactive

How did COC(=O)[C@@]12C[C@@H](CC(=O)NCC34CC5CC(CC(C5)C3)C4)C(=O)N(Cc3ccc4c(c3)OCO4)C1=CCC(C)(C)C2 do in these assays?
FGF22 binding: inactive

What do the screens show for `OC[C@H]1Nc2ccc(-c3ccc(F)cc3)cc2[C@H]2[C@@H]1CCN2Cc1ccc(F)cc1`?
FGF22 binding: inactive

Results for CC(C(=O)NC(C)(C)C)n1c(-c2ccc3c(c2)OCO3)nc2ccccc21 (configuration not stated) ?
FGF22 binding: inactive

Results for O=C1Nc2ccccc2-n2nnnc2C1N1CCN(c2ccccn2)CC1 (configuration not stated) ?
FGF22 binding: inactive

What do the screens show for `CC(C)NC(=O)C1(C)CN(S(C)(=O)=O)CC(=O)N1Cc1ccco1` (configuration not stated)?
FGF22 binding: inactive

How did COc1ccccc1-n1cc(CN2CCc3onc(-c4ccc(Br)cc4)c3C2=O)nn1 do in these assays?
FGF22 binding: inactive

How did C#CCNC(=O)C[C@@H]1C[C@@]2(C(=O)OC)CC(C)(C)CC=C2N(Cc2ccco2)C1=O do in these assays?
FGF22 binding: inactive

Results for O=C(C[C@@H]1CC[C@H]2[C@@H](COC[C@H](O)CN2Cc2ccc(Oc3ccccc3)cc2)O1)N1CCc2ccccc2C1 ?
FGF22 binding: inactive

How did COC(=O)C1=CN(c2ccc(Oc3ccccc3)cc2)C(N)=C(C#N)C1c1ccc(-c2ccccc2)cc1 (configuration not stated) do in these assays?
FGF22 binding: inactive

How did C[C@@H]1CN([C@H](C)CO)C(=O)c2cc(Br)cnc2O[C@@H]1CN(C)CC1CCOCC1 do in these assays?
FGF22 binding: inactive

What do the screens show for `CCOC(=O)[C@]12CCCC=C1N(CCC1=CCCCC1)C(=O)[C@H](CC(=O)N1CCCCC1)C2`?
FGF22 binding: inactive

What do the screens show for `Cc1ccc(S(=O)(=O)Nc2ccc(F)c(F)c2O)cc1`?
FGF22 binding: inactive

Results for CC(C)(C)NC(=O)C(c1ccccc1F)n1c(=O)c(-c2ccccc2)nc2ccccc21 (configuration not stated) ?
FGF22 binding: inactive

Results for COCCNC(=O)c1c(N)[nH]c(C(=O)c2ccc(Br)cc2)c1-c1ccc(Br)cc1 ?
FGF22 binding: inactive

What do the screens show for `CCCCCCCCN1C(=O)[C@H](CC(=O)N2CCCC2)C[C@@]2(C(=O)OC)CC(C)(C)CC=C12`?
FGF22 binding: inactive

What do the screens show for `Nc1ccc(CNC(=O)c2cc3cc(Cl)ccc3nc2N)cc1`?
FGF22 binding: inactive

How did CC(C)(C)NC(=O)C(C1CC1)n1c(=O)c(-c2cc3ccccc3[nH]2)nc2ccccc21 (configuration not stated) do in these assays?
FGF22 binding: inactive

How did CO[C@@H]1CN(C)C(=O)c2ccc(NC(=O)c3ccccn3)cc2OC[C@@H](C)N(CC2CC2)C[C@H]1C do in these assays?
FGF22 binding: inactive

What do the screens show for `COc1ccc(-c2ccc3c(c2)[C@H]2[C@H](CCN2S(=O)(=O)c2ccccc2F)[C@@H](CO)N3)cc1`?
FGF22 binding: inactive

Results for Nc1[nH]c(C(=O)c2ccccc2)c(-c2ccc3ccccc3c2)c1C(=O)NC1CC1 ?
FGF22 binding: inactive

Results for C=CCC(NC(=O)N(C)C)(C(C)=O)C(=O)OC (configuration not stated) ?
FGF22 binding: inactive

What do the screens show for `Cc1cc2c(cc1C)-n1nnnc1C(N(Cc1ccccc1)Cc1ccccc1)C(=O)N2` (configuration not stated)?
FGF22 binding: inactive

Results for O=C(NCc1cccs1)C1C(=O)Nc2ccccc2C(=O)N1Cc1ccccc1 (configuration not stated) ?
FGF22 binding: inactive

What do the screens show for `O=C(O)c1ccccc1CN1C[C@H]2O[C@H](CNS(=O)(=O)c3ccc(Cl)cc3)CC[C@H]21`?
MLL AF4-AF9 inh: -0.8

Results for O=C(Nc1ccc(F)cc1)N[C@@H]1C[C@@H]2O[C@@H](CO)CC[C@@H]2O[C@@H]1CCc1ccc(-c2ccccc2)cc1 ?
MLL AF4-AF9 inh: -0.4

What do the screens show for `CC(C)NC(=O)N[C@H]1C[C@@H]2O[C@H](CO)CC[C@@H]2O[C@@H]1CCc1ccc(-c2ccccc2F)cc1`?
MLL AF4-AF9 inh: -5.9

Results for COc1ccc(CN2C[C@H](C)[C@@H](OC)CN(C)C(=O)c3ccc(NC(=O)c4nc5ccccc5s4)cc3OC[C@@H]2C)cc1 ?
MLL AF4-AF9 inh: 4.0

Results for CCCN(C)C[C@H]1OCCCC[C@@H](C)Oc2ccc(NC(=O)Nc3ccccc3)cc2C(=O)N([C@H](C)CO)C[C@@H]1C ?
MLL AF4-AF9 inh: 1.3

How did C=CCNC(=O)[C@@H]1[C@H]2C(=O)O[C@H](c3ccccc3)[C@H](c3ccccc3)N2[C@H](c2ccccc2OCCO)[C@@]12C(=O)N(C(=O)OCCOC)c1ccc(C#Cc3ccc(OC)cc3)cc12 do in these assays?
MLL AF4-AF9 inh: -0.6

What do the screens show for `O=C(NC[C@@H]1CC[C@H]2[C@H](CN2Cc2ccc(Oc3ccccc3)cc2)O1)C1CCOCC1`?
MLL AF4-AF9 inh: -1.5

Results for N#Cc1ccc(-c2ccc3c(c2)[C@H]2[C@H](CCN2C(=O)C2CCCC2)[C@H](CO)N3)cc1 ?
MLL AF4-AF9 inh: -4.2

What do the screens show for `COc1ccccc1CCC(=O)Nc1ccc(S(=O)(=O)Nc2ncccn2)cc1`?
MLL AF4-AF9 inh: 0.9

How did O=C(O)c1cc(S(=O)(=O)Nc2cc(Cl)ccc2Oc2ccccc2)ccc1O do in these assays?
MLL AF4-AF9 inh: 1.0

Results for O=C(NC[C@@H]1CC[C@@H]2[C@@H](CN2S(=O)(=O)c2ccccc2[N+](=O)[O-])O1)C1CCOCC1 ?
MLL AF4-AF9 inh: 28*

What do the screens show for `O=C(NC[C@@H]1CC[C@@H]2[C@@H](CN2C(=O)Cc2ccncc2)O1)C1CCOCC1`?
MLL AF4-AF9 inh: -4.0

What do the screens show for `O=C(NC[C@@H]1CC[C@@H]2[C@@H](CN2Cc2cc(-c3ccccc3)on2)O1)c1ccc2c(c1)OCO2`?
MLL AF4-AF9 inh: -2.0

What do the screens show for `COCC#Cc1ccc(CC[C@H]2O[C@H]3CC[C@@H](CO)O[C@H]3C[C@H]2n2cc(C(C)(C)O)nn2)cc1`?
MLL AF4-AF9 inh: -4.5

Results for COc1ccc(S(=O)(=O)NC[C@@H]2CC[C@H]3[C@H](CN3Cc3cc(F)ccc3F)O2)cc1 ?
MLL AF4-AF9 inh: 1.0

What do the screens show for `O=C(N[C@H]1C[C@@H]2O[C@H](CO)CC[C@@H]2O[C@@H]1CCc1ccc(-c2cccnc2)cc1)c1cccc(F)c1`?
MLL AF4-AF9 inh: 1.3

Fetched by structure from the list above, four records:
How did COc1ccccc1-n1cc(CN2CCc3onc(-c4ccc(Br)cc4)c3C2=O)nn1 do in these assays?
FGF22 binding: inactive

What do the screens show for `CC(C)NC(=O)N[C@H]1C[C@@H]2O[C@H](CO)CC[C@@H]2O[C@@H]1CCc1ccc(-c2ccccc2F)cc1`?
MLL AF4-AF9 inh: -5.9

How did CC(C)(C)NC(=O)C(C1CC1)n1c(=O)c(-c2cc3ccccc3[nH]2)nc2ccccc21 (configuration not stated) do in these assays?
FGF22 binding: inactive

How did C#CCNC(=O)C[C@@H]1C[C@@]2(C(=O)OC)CC(C)(C)CC=C2N(Cc2ccco2)C1=O do in these assays?
FGF22 binding: inactive

A portion of the library; count on the stated rates, not on these rows.
